MT1-MMP act inh = blockers of MT1-MMP proenzyme processing, primary screen, HT1080 RFP-PRO-GFP cells, GFP/RFP fluorescence | Matrix metalloproteinase-14 (Homo sapiens), P50281 | GFP/RFP ratio fluorescence, overnight; percent of plate control window, DMSO zero | GFP/RFP ratio change, % at 20 µM | 360,000 tested, 0.061% active | AID 651647, 2012;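 active means GFP/RFP ratio change of at least 30% with cell ATP level not reduced by more than half and red fluorescence within 50% of control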; further: strong numbers were not always called active
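Test system: HT1080 RFP-PRO-GFP cells; Benchmarks: DMSO and RFP-L50D-GFP cell wells; Timing: cells overnight before dosing, compound overnight, 37 °C, 5% CO2; Compound: one 20 µM compound dose with 1% DMSO; Read-out: GFP/RFP fluorescence ratio.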
Yeast UUG start = modulators of yeast start codon fidelity, primary screen, whole organism, S. cerevisiae, single point, plate reader; S. cerevisiae UUG-firefly luciferase reporter, luminescence/redox ratio; activity score, % at 18.7 µM; 350,000 tested, 0.13% active; AID 602363, 2012;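 active means replicate mean at a twofold rise or more, about +100% in these data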;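 further: firefly luciferase made from a UUG start codon reports start codon fidelity; reporter light over untreated wells divided by growth signal over untreated wells; some hits fall short of that in this replicate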
MT1-MMP act inh RFP = also measured in MT1-MMP act inh; calls as there; RFP signal change, %; measured here: RFP expression control read;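 0 = vehicle wells; hits needed this value within 50% of zero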
* marks the source's active call; other numbers are inactive results; & = joins results of further samples. This is a subset. The share of hits here may be higher or lower than overall.

#1 COc1cccc(NC(=O)CN2C(=O)NC3(CCCc4ccccc43)C2=O)c1 (stereo unspecified)
#2 COc1ccc(C(=O)/C=C/c2ccc(O)cc2)c(O)c1C/C=C(\C)CCC=C(C)C
#3 CN1C(=O)[C@H]2[C@@H](c3ccccc3)N[C@]3(CCCN(Cc4ccc(F)cc4)C3=O)[C@H]2C1=O
#4 Cc1ccc(C)c(C(O)c2ncc(-c3ccc(F)cc3)[nH]2)c1 (stereo unspecified)
#5 COc1ccc2c(CC(=O)OCC(=O)Nc3cccc(C)c3)coc2c1
#6 O=C(Cc1ccccc1[N+](=O)[O-])NNC(=O)c1cccs1
#7 CCCS(=O)(=O)NC(=O)C1(C)CCCN(C(=O)c2ccc(F)cc2Cl)C1 (stereo unspecified)
#8 Cc1cc(F)ccc1C(O)c1ncc(-c2cccc(OCc3ccccc3)c2)[nH]1 (stereo unspecified)

assay / compound,1,2,3,4,5,6,7,8
MT1-MMP act inh,8,-1,1,2,-2,2,1,8
MT1-MMP act inh RFP,-6,-8,4,-5,1,4,5,-4
Yeast UUG start,-6,-9,-21,-23,-6,-19,-9,-12

#9 CC(OC(=O)CCN=C1NS(=O)(=O)c2ccccc21)C(=O)Nc1ccc(S(N)(=O)=O)cc1 (stereo unspecified)
#10 Cn1nc(C(=O)NCC(=O)Nc2ccc(F)c(F)c2F)c2ccccc2c1=O
#11 COc1cccc(CC(=O)OCC(=O)NC2CCCC2)c1
#12 O=C1[C@H]2[C@@H](c3ccccc3)N[C@]3(CCCN(Cc4ccc(Cl)cc4)C3=O)[C@H]2C(=O)N1Cc1ccccc1
#13 CCC(=O)c1ccc(OCC(=O)Nc2ccccc2N2CCOCC2)cc1
#14 COc1ccc(OCc2cn(CC(=O)c3ccc(O)cc3)nn2)cc1
#15 CC(=O)c1c(C)[nH]c(C(=O)OCC(=O)Nc2c(C)n(C)n(-c3ccccc3)c2=O)c1C
#16 Cc1ccccc1S(=O)(=O)NC(=O)C1(C)CCN1C(=O)COc1ccc(Cl)cc1 (stereo unspecified)

assay / compound,9,10,11,12,13,14,15,16
MT1-MMP act inh,-2,-3,-1,5,-5,2,1,-3
MT1-MMP act inh RFP,0,0,3,-5,-6,4,-2,0
Yeast UUG start,-10,-18,-10,3,-15,-17,2,-11

#17 Cc1cccc(N=Cc2ccccc2O)c1C
#18 c1ccc(-c2csc(CN3CCCCC3)n2)cc1
#19 CC(O)(c1cccc(F)c1)c1nc(-c2cncnc2)cs1 (stereo unspecified)
#20 O=[N+]([O-])c1ccccc1CCc1ccccc1[N+](=O)[O-]
#21 C=CCNc1cc(F)ccc1S(=O)(=O)NCC=C
#22 COc1ccccc1C(=O)NCC(=O)N1CCN(S(=O)(=O)c2ccccc2C(F)(F)F)CC1
#23 CN(CC(=O)NC(=O)NC1CCCCC1)Cc1ccccc1
#24 CC(C)CC1C(=O)N(Cc2cn(CCC3OCCO3)nn2)CCS(=O)(=O)N1Cc1ccc(-c2ccc(F)cc2)cc1 (stereo unspecified)

assay / compound,17,18,19,20,21,22,23,24
MT1-MMP act inh,-2,-1,0,2,1,-2,-1,-2
MT1-MMP act inh RFP,-1,2,5,-5,1,-1,-1,-5
Yeast UUG start,-1,-16,-2,-38,-19,0,-19,10

#25 CN(C)C/C=C/C(=O)Nc1cccc(-c2c[nH]c3ncnc(Oc4ccc(NC(=O)CC(=O)Nc5ccc(F)cc5)cc4F)c23)c1
#26 CC1(c2ccc3ccccc3c2)NC(=O)N(CC(=O)N2CCN(Cc3ccccc3)CC2)C1=O (stereo unspecified)
#27 COC(=O)[C@H](Cc1ccccc1)NC(=O)CC[C@H]1O[C@@H](n2ccc(=O)[nH]c2=O)[C@H](O)[C@@H]1O
#28 COc1ccc(C(CNC(=O)c2cccc(S(=O)(=O)Nc3ccccc3OC)c2)N2CCCCC2)cc1 (stereo unspecified)
#29 CCN(Cc1nc2cc(Cl)ccc2c(=O)[nH]1)C(=O)COc1ccccc1Cc1ccccc1
#30 CN(CC(=O)Nc1ccccc1C(F)(F)F)C(=O)C1CC1
#31 CC(C)c1ccc(NC(=O)COC(=O)c2ccc(CN3CCCC3=O)cc2)cc1
#32 COc1ccc(Cc2c(-c3ccc(C)cc3)nc3cc(C)c(Br)c(C)n23)c(C)c1

assay / compound,25,26,27,28,29,30,31,32
MT1-MMP act inh,-7,19,3,-2,-1,-2,0,-2
MT1-MMP act inh RFP,-7,-28,4,-2,-3,4,3,-4
Yeast UUG start,8,1,-13,-21,-22,-13,4,-8

#33 Cc1csc(SCC(=O)Nc2ccccc2C)n1
#34 O=C1CCCCC1C(O)(C(=O)c1ccccc1)c1ccccc1 (stereo unspecified)
#35 CC(C(=O)N1CCCC1)N1CCN(S(=O)(=O)c2ccc(OC(F)(F)F)cc2)CC1 (stereo unspecified)
#36 Cc1occc1-c1nnc(SCC(=O)N2CCCC(C)C2)o1 (stereo unspecified)
#37 COc1ccc(NC(=O)CN(C)CC(=O)Nc2cccc(F)c2)cc1S(=O)(=O)N1CCCCC1
#38 N#Cc1ccccc1S(=O)(=O)N1CCN(Cc2c(O)ccc3ccccc23)CC1
#39 CCCCCCCCNS(=O)(=O)CCNCc1ccccc1
#40 CCNC(=O)C1CCCN(C(=O)c2cc(F)cc(F)c2)CC1 (stereo unspecified)

assay / compound,33,34,35,36,37,38,39,40
MT1-MMP act inh,-2,3,6,-1,-2,-2,3,3
MT1-MMP act inh RFP,-1,-6,-1,1,-3,4,4,3
Yeast UUG start,-2,18,1,-18,6,-31,-12,-3

#41 CC[C@]12c3[nH]c4ccc(OC)cc4c3CCN1C(=O)C(CC(=O)NCc1ccco1)C[C@@H]2C(=O)N1CCN(C(=O)c2ccco2)CC1 (stereo partly specified)
#42 O=C(NCCC(=O)N1CCN(S(=O)(=O)c2ccc(Cl)cc2)CC1)Nc1ccccc1
#43 C=CCc1cc(CN2CC(C)OC(C)C2)c(O)c(OC)c1 (stereo unspecified)
#44 COc1cccc(NC(=O)CN(C)S(=O)(=O)/C=C/c2ccccc2)c1
#45 CN(Cc1ccccc1)S(=O)(=O)c1ccc(Cl)c(C(=O)N2CCC2)c1
#46 O=C(c1[nH]c(C(F)(F)F)nc1-c1ccccc1)N1CCN(c2ncccn2)CC1
#47 CC(NC(=O)c1ccc2c(c1)OCO2)c1cccc(C(F)(F)F)c1 (stereo unspecified)
#48 CCN(CC(=O)Nc1ccc2c(c1)OCCO2)C(=O)CCc1ccccc1Cl

assay / compound,41,42,43,44,45,46,47,48
MT1-MMP act inh,-1,1,-4,5,2,4,2,0
MT1-MMP act inh RFP,0,1,2,3,-4,3,5,2
Yeast UUG start,0,12,-1,8,-21,-11,-1,-4

#49 C[C@@H]1CN([C@H](C)CO)C(=O)CCCn2nncc2CO[C@H]1CN(C)Cc1cccc(C(F)(F)F)c1
#50 CS(=O)(=O)c1ccc(C(=O)Nc2nc(-c3ccco3)c(-c3ccco3)s2)cc1
#51 COc1ccc(/C=C/C(=O)c2c(O)cc(OC)cc2OC)cc1
#52 O=C(Cc1c[nH]c2ccccc12)N1CCN(S(=O)(=O)c2cccc(Cl)c2Cl)CC1
#53 CCN(CC(=O)Nc1ccc(OC)cc1)C(=O)CSCc1ccc(C)cc1
#54 COc1ccc(C2CCc3cc4c(cc3C2=NO)OCO4)cc1OC (stereo unspecified)
#55 Cc1c(C(=O)NCc2ccccc2CN2CCCC2)oc2c(F)cccc12
#56 S=c1nc[nH]c2c1ncn2-c1ccc(Cl)cc1

assay / compound,49,50,51,52,53,54,55,56
MT1-MMP act inh,3,-2,1,0,2,3,-1,-1
MT1-MMP act inh RFP,0,4,-5,0,-2,-14,2,4
Yeast UUG start,-14&10,-18,-4,-8,-18,10,-2,-16

Gathered by group: the compounds so far containing a Cl atom (9)
#7 CCCS(=O)(=O)NC(=O)C1(C)CCCN(C(=O)c2ccc(F)cc2Cl)C1 (stereo unspecified)
#12 O=C1[C@H]2[C@@H](c3ccccc3)N[C@]3(CCCN(Cc4ccc(Cl)cc4)C3=O)[C@H]2C(=O)N1Cc1ccccc1
#16 Cc1ccccc1S(=O)(=O)NC(=O)C1(C)CCN1C(=O)COc1ccc(Cl)cc1 (stereo unspecified)
#29 CCN(Cc1nc2cc(Cl)ccc2c(=O)[nH]1)C(=O)COc1ccccc1Cc1ccccc1
#42 O=C(NCCC(=O)N1CCN(S(=O)(=O)c2ccc(Cl)cc2)CC1)Nc1ccccc1
#45 CN(Cc1ccccc1)S(=O)(=O)c1ccc(Cl)c(C(=O)N2CCC2)c1
#48 CCN(CC(=O)Nc1ccc2c(c1)OCCO2)C(=O)CCc1ccccc1Cl
#52 O=C(Cc1c[nH]c2ccccc12)N1CCN(S(=O)(=O)c2cccc(Cl)c2Cl)CC1
#56 S=c1nc[nH]c2c1ncn2-c1ccc(Cl)cc1

assay / compound,7,12,16,29,42,45,48,52,56
MT1-MMP act inh,1,5,-3,-1,1,2,0,0,-1
MT1-MMP act inh RFP,5,-5,0,-3,1,-4,2,0,4
Yeast UUG start,-9,3,-11,-22,12,-21,-4,-8,-16

Next section
#57 COc1ccc(S(=O)(=O)N(C)C)cc1NC(=O)c1ccc2c(c1)OCCO2
#58 O=C(CSc1ccc(Cl)cc1)NC(=O)c1ccccc1
#59 Nc1ccc(C=C2C=Cc3ccccc32)cc1
#60 Clc1cccc(-c2nc3ccc(Cl)cn3c2Cc2ccsc2)c1
#61 O=S(=O)(c1ccccc1)N1CCN(Cc2nnc(-c3ccccc3)o2)CC1
#62 C#CCN(C[C@@H]1[C@@H](OC(=O)NCc2ccccc2F)[C@@H](OC(=O)NCc2ccccc2F)CN(C(=O)OC(C)C)N1C(=O)OC(C)C)S(=O)(=O)c1ccc(C)cc1
#63 CC1(c2nc3ccccc3[nH]2)CCC(=O)N1Cc1cccs1 (stereo unspecified)
#64 COC(=O)C(Cc1ccccc1)NC(=O)CNC(=O)c1ccc(Br)o1 (stereo unspecified)

assay / compound,57,58,59,60,61,62,63,64
MT1-MMP act inh,2,-3,3,1,-20,2,4,2
MT1-MMP act inh RFP,2,3,1,2,-39,-2,3,-1
Yeast UUG start,-10,-10,-12,-14,-8,-22,-4,-8

#65 COc1ccc(C(CNC(=O)C(C)(C)Oc2ccc(Cl)cc2)N2CCOCC2)cc1 (stereo unspecified)
#66 O=C(Nc1ccc(N2CCOCC2)cc1)c1ccc(Cl)c(S(=O)(=O)N2CCCC2)c1
#67 CC(C)COc1ccc(C(=O)NNC(=O)c2ccc(=O)[nH]c2)cc1
#68 CCOc1ccccc1OCCC(=O)N1CCN(S(=O)(=O)c2ccccc2[N+](=O)[O-])CC1
#69 O=C1NC(Cc2ccc(O)cc2)c2nc3ccc(F)cc3c(=O)n2-c2cc(Cl)ccc21 (stereo unspecified)
#70 C[C@H]1CCCCO[C@@H](CN(C)S(=O)(=O)c2ccc(F)cc2)[C@@H](C)CN([C@@H](C)CO)C(=O)c2cc(NC(=O)Nc3ccc4c(c3)OCO4)ccc2O1
#71 CC1=C(C(=O)N(C(C)C)C(C)C)CC(CC(=O)NC2CCCC2)C(=O)N1Cc1ccc(F)cc1 (stereo unspecified)
#72 COc1ccc(C(CNC(=O)COc2ccccc2)N2CCCCC2)cc1 (stereo unspecified)

assay / compound,65,66,67,68,69,70,71,72
MT1-MMP act inh,-3,0,-3,9,-2,3,3,3
MT1-MMP act inh RFP,0,-32,1,4,1,-9,2,-3
Yeast UUG start,-17,-13,-46,-19,-5,-15,1,7

#73 O=C(NCc1ccccc1CN1CCCC1)c1ccc(OCc2cscn2)cc1
#74 Nc1c(C(=O)CSc2ccccn2)c(=O)[nH]c(=O)n1C1CC1
#75 O=C(COc1ccc(F)cc1)Nc1nc(-c2cccnc2)cs1
#76 Cc1cc(OCCCC(=O)Nc2cc(S(=O)(=O)N3CCOCC3)ccc2N2CCOCC2)ccc1Cl
#77 Cc1nn(CC(=O)N2CCN(S(=O)(=O)c3ccccc3)CC2)c(C)c1[N+](=O)[O-]
#78 COc1ccc(C(=O)N2CCN(c3cccc(C)c3C)CC2)cc1S(=O)(=O)NC1CC1
#79 COc1ccccc1CC(=O)Nc1ccc(S(=O)(=O)N(C)C2CCN(C)CC2)cc1
#80 CCN(CC(=O)Nc1ccc(NC(C)=O)cc1)C(=O)c1ccc(N(C)S(=O)(=O)c2ccc(C)cc2)cc1

assay / compound,73,74,75,76,77,78,79,80
MT1-MMP act inh,-1,0,2,3,0,-2,-4,4
MT1-MMP act inh RFP,1,1,5,-5,2,-8,-2,3
Yeast UUG start,-32,-3,-21,-12,0,14,-33,6

#81 O=c1ccc2ccc(O)cc2o1
#82 Cc1ccc(S(=O)(=O)N2CCOCC2)cc1C(=O)OCC(=O)c1ccc(Br)cc1
#83 CCc1nnc(NC(=O)c2cc(S(=O)(=O)N3CCCCC3)ccc2C)s1
#84 CCn1nc(C(=O)OCC(=O)N(CCC#N)c2ccccc2)c2ccccc2c1=O
#85 Cc1ccc(CN2CC(C(=O)NNC(=O)Cn3ccc(C(F)(F)F)n3)CC2=O)cc1 (stereo unspecified)

assay / compound,81,82,83,84,85
MT1-MMP act inh,-4,-4,2,4,2
MT1-MMP act inh RFP,1,-6,2,4,3
Yeast UUG start,-9,-9,-14,-3,-3

Screens (PubChem)
